Vaccinia stage: Vaccinia orthopox stage-specific inhibition. Vaccinia-infected cells, mCherry/Venus stage reporter fluorescence; hits give low values; some inactives read as strong as hits. 89,000 compounds, 0.01% hits. AID 1053133. activity change (mCherry), % (no concentration beside the values);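 active = mCherry past -33% and 40 or more points under the early reporter, replicates agreeing; inconclusive = past -33% without that gap or agreement; tested in A549 cells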;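 note: scaled between vehicle wells and reference inhibitor wells; 23 nL library stock went into each well; one replicate is shown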
Vaccinia stage Venus: also measured in Vaccinia stage; calls as there; activity change (Venus), %; measured here: Venus reporter, other viral stage;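 negative = less Venus signal; first of two replicates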
* marks the source's active call; other numbers are inactive results; ? = inconclusive; / = no result given. This is a subset; rates above refer to the full screens.

1	CCCC#Cc1ccc([C@@H]2[C@H]3CN(C(=O)c4ccc5c(c4)OCO5)CCCCN3[C@H]2CO)cc1
2	CC(=O)NC[C@@H]1[C@H](c2ccc(-c3cccnc3)cc2)[C@H](CO)N1C(=O)C1CC1
3	CNC[C@H]1Oc2ccc(NS(=O)(=O)c3ccc(OC)cc3)cc2CC(=O)N([C@@H](C)CO)C[C@H]1C
4	CCCNC(=O)N1CC(=O)N2[C@H](CO)[C@H](c3ccc(-c4ccncc4)cc3)[C@@H]2C1
5	CCCc1cn([C@H]2C[C@@H]3O[C@H](CO)CC[C@@H]3O[C@@H]2CCc2ccc(-c3ccccc3C#N)cc2)nn1
6	CN(C[C@H]1[C@H](c2ccccc2)[C@@H](CO)N1CC1CC1)C(=O)c1ccccc1
7	O=C(N[C@H]1CC[C@@H](CCNS(=O)(=O)c2ccc(F)cc2)O[C@@H]1CO)C1CC1
8	COc1cccc(CN2CC3(CN(CC4CCOCC4)C3)c3c([nH]c4cc(OC)ccc34)[C@H]2CO)c1

Screen / compound no.	1	2	3	4	5	6	7	8
Vaccinia stage	?	3	20	39	16	20	11	13
Vaccinia stage Venus	/	9	18	25	7	12	5	6

9	O=C(C[C@@H]1CC[C@@H](NC(=O)c2ccc3c(c2)OCO3)[C@@H](CO)O1)NCc1ccc(F)cc1
10	COc1ccccc1S(=O)(=O)N[C@@H]1CC[C@@H](CCNC(=O)C2CCOCC2)O[C@H]1CO
11	C[C@H](CO)N1C[C@H](C)[C@H](CN(C)C(=O)Nc2ccccc2)Oc2ccc(NC(=O)Nc3cccc4ccccc34)cc2CC1=O
12	CCC(=O)N(C)C[C@@H]1Oc2ncc(C#C[C@@H](C)O)cc2C(=O)N([C@@H](C)CO)C[C@H]1C
13	O=C(C[C@H]1CC[C@@H]2[C@H](COC[C@@H](O)CN2CC2CCCCC2)O1)NCC1CC1
14	CC(=O)N[C@@H]1CC[C@H](CC(=O)NCc2ccc(Cl)cc2)O[C@H]1CO
15	CC(C)COC(=O)N(C)C[C@@H]1OCc2cn(nn2)CCCC(=O)N([C@@H](C)CO)C[C@@H]1C
16	CCCNC(=O)Nc1ccc2c(c1)OC[C@@H](C)N(Cc1ccncc1)C[C@@H](C)[C@@H](OC)CN(C)C2=O

Screen / compound no.	9	10	11	12	13	14	15	16
Vaccinia stage	3	13	4	14	6	19	-4	5
Vaccinia stage Venus	7	5	8	15	4	12	-7	2

17	COc1ccc(NC(=O)N(C)C[C@H]2Oc3c(NC(=O)c4cnccn4)cccc3C(=O)N([C@H](C)CO)C[C@H]2C)cc1
18	Cc1noc(C)c1NC(=O)Nc1ccc2c(c1)C(=O)N([C@H](C)CO)C[C@@H](C)[C@H](CN(C)C(=O)Nc1ccc3c(c1)OCO3)OCCCC[C@@H](C)O2
19	COc1cccc(S(=O)(=O)N2C[C@H](O)COC[C@@H]3O[C@H](CC(=O)Nc4ccccc4)CC[C@H]32)c1
20	CC(C)NC(=O)N(C)C[C@H]1OCCCC[C@@H](C)Oc2ccc(NC(=O)c3ccccc3)cc2C(=O)N([C@H](C)CO)C[C@@H]1C
21	O=C(c1ccccc1F)N1CC(=O)N2[C@@H](CO)[C@@H](c3ccc(-c4cccnc4)cc3)[C@@H]2C1
22	Cc1noc(C)c1NC(=O)Nc1ccc2c(c1)C(=O)N([C@H](C)CO)C[C@H](C)[C@@H](CN(C)S(C)(=O)=O)OCCCC[C@H](C)O2
23	C[C@@H]1CCCCO[C@H](CN(C)C(=O)Nc2ccc(F)cc2)[C@@H](C)CN([C@H](C)CO)C(=O)c2cc(NC(=O)C3CCCCC3)ccc2O1
24	C[C@@H]1CN([C@@H](C)CO)C(=O)c2cc(C#Cc3ccccc3F)cnc2O[C@@H]1CN(C)C(=O)Cc1ccccc1

Screen / compound no.	17	18	19	20	21	22	23	24
Vaccinia stage	7	-8	-14	31	14	8	-9	?
Vaccinia stage Venus	10	-11	-16	12	1	4	-8	/

25	C[C@H](CO)N1C[C@H](C)[C@H](CN(C)Cc2ccccc2)Oc2cc(C3=CCCC3)ccc2S1(=O)=O
26	C[C@@H]1CN([C@H](C)CO)C(=O)c2cc(NS(=O)(=O)c3ccc(Cl)cc3)ccc2O[C@@H]1CN(C)Cc1ccccc1
27	C/C=C/c1cnc2c(c1)C(=O)N([C@@H](C)CO)C[C@@H](C)[C@H](CN(C)C(=O)c1cccnc1)O2
28	CCNC(=O)[C@@H]1[C@@H](CO)[C@@H]2Cn3c(ccc(-c4cncnc4)c3=O)[C@@H]2N1C(=O)NC1CCCC1
29	Cc1noc(C)c1NC(=O)Nc1ccc2c(c1)C(=O)N([C@H](C)CO)C[C@H](C)[C@H](CN(C)S(=O)(=O)c1cccs1)OCCCC[C@H](C)O2
30	C[C@@H]1CN([C@@H](C)CO)C(=O)Cc2cc(NC(=O)C3CC3)ccc2O[C@H]1CN(C)S(=O)(=O)c1cccs1
31	C[C@@H]1CN([C@@H](C)CO)C(=O)c2c(c3ccccc3n2C)-c2ccccc2CO[C@H]1CN(C)Cc1cccc(O)c1
32	COc1ccc(S(=O)(=O)Nc2cccc3c2O[C@H](CN(C)C(=O)NC2CCCCC2)[C@H](C)CN([C@H](C)CO)C3=O)cc1

Screen / compound no.	25	26	27	28	29	30	31	32
Vaccinia stage	-9	?	14	-3	17	13	?	13
Vaccinia stage Venus	-11	/	10	8	7	7	/	16

Profiles from above.
`CC(=O)NC[C@@H]1[C@H](c2ccc(-c3cccnc3)cc2)[C@H](CO)N1C(=O)C1CC1` in the list: Vaccinia stage = 3; Vaccinia stage Venus = 9
`C[C@@H]1CN([C@@H](C)CO)C(=O)c2cc(C#Cc3ccccc3F)cnc2O[C@@H]1CN(C)C(=O)Cc1ccccc1` in the list: Vaccinia stage = ?; Vaccinia stage Venus = /

Remaining list, next part
33	COCC(=O)N(C)C[C@@H]1Oc2ncc(-c3ccc(C)cc3)cc2C(=O)N([C@H](C)CO)C[C@H]1C
34	CO[C@@H]1CN(C)C(=O)c2cc(NC(=O)C3CCOCC3)ccc2OC[C@@H](C)N(C(=O)C2CCOCC2)C[C@H]1C
35	C[C@@H]1CCCCO[C@H](CN(C)C(=O)Nc2cccc3ccccc23)[C@@H](C)CN([C@H](C)CO)C(=O)c2cc(NC(=O)c3ccncc3)ccc2O1
36	OC[C@@H]1[C@H](c2ccc(C3=CCCCC3)cc2)[C@@H]2CN(CCC(F)(F)F)CCCCN12
37	C[C@@H]1CCCCO[C@H](CN(C)Cc2ccc(C(F)(F)F)cc2)[C@H](C)CN([C@H](C)CO)C(=O)c2cc(NC(=O)CCC(F)(F)F)ccc2O1
38	CC(C)CC#Cc1ccc2c(c1)O[C@H](CN(C)Cc1ccncc1)[C@@H](C)CN([C@H](C)CO)S2(=O)=O
39	Cn1cnc(CCNC(=O)C[C@H]2CC[C@H]3[C@@H](COC[C@@H](O)CN3C(=O)C3CCCC3)O2)c1
40	C[C@H](CO)N1C[C@H](C)[C@@H](CN(C)C(=O)C2CC2)Oc2cc(C#C[C@@H](C)O)ccc2S1(=O)=O

Screen / compound no.	33	34	35	36	37	38	39	40
Vaccinia stage	20	9	30	?	?	?	12	12
Vaccinia stage Venus	17	8	18	/	/	/	7	7

41	C[C@H]1CN([C@@H](C)CO)C(=O)c2cccc(NS(C)(=O)=O)c2O[C@@H]1CN(C)Cc1ccccc1
42	CCC(=O)Nc1ccc2c(c1)C(=O)N(C)[C@H]1CC[C@H](CC(=O)NCCN3CCCCC3)O[C@H]1CO2
43	C[C@@H]1CN([C@H](C)CO)C(=O)c2cc(NC(=O)Nc3cccc4ccccc34)ccc2O[C@@H](C)CCCCO[C@H]1CN(C)C(=O)c1ccccc1
44	CCC(=O)Nc1ccc2c(c1)C(=O)N(C)[C@H]1CC[C@H](CC(=O)Nc3ccccc3OC)O[C@@H]1CO2
45	COc1cccc(-c2cn(CC[C@H]3CC[C@@H](NS(=O)(=O)c4ccccc4Cl)[C@@H](CO)O3)nn2)c1
46	COc1ccccc1-c1cn(CC[C@@H]2CC[C@H](NC(=O)C3CCCC3)[C@@H](CO)O2)nn1
47	C[C@H](CO)N1C[C@H](C)[C@H](CN(C)C(=O)Nc2ccc(C(F)(F)F)cc2)Oc2ccc(NC(=O)C3CC3)cc2C1=O
48	CO[C@@H](CN(C)Cc1ccc2c(c1)OCO2)[C@@H](C)CN(C(=O)Nc1ccc(F)cc1)[C@@H](C)CO

Screen / compound no.	41	42	43	44	45	46	47	48
Vaccinia stage	12	0	-4	-19	0	-8	-10	-6
Vaccinia stage Venus	15	-4	0	-12	3	-3	-4	-7

49	C[C@@H]1CN([C@H](C)CO)S(=O)(=O)c2ccc(C#CCC3CCCC3)cc2O[C@H]1CN(C)C(=O)CC1CC1
50	COc1ccc(-c2ccc([C@@H]3[C@H](CO)N4CCCCN(C(=O)Cc5ccncc5)C[C@@H]34)cc2)cc1
51	C[C@H](CO)N1C[C@H](C)[C@H](CN(C)C(=O)C2CC2)Oc2ncc(C#CC3CCCC3)cc2C1=O
52	C[C@H]1CCCCO[C@@H](CN(C)Cc2ccc(C(=O)O)cc2)[C@@H](C)CN([C@@H](C)CO)C(=O)c2cc(NC(=O)CCCN(C)C)ccc2O1
53	CC(=O)Nc1ccc2c(c1)C(=O)N(C)[C@H]1CC[C@@H](CC(=O)NCc3ccccc3Cl)O[C@H]1CO2
54	CC(C)CC#Cc1ccc2c(c1)O[C@H](CN(C)C(=O)CN(C)C)[C@H](C)CN([C@@H](C)CO)S2(=O)=O
55	C[C@H]1CN([C@@H](C)CO)C(=O)Cc2cc(NC(=O)Cc3ccccc3)ccc2O[C@@H]1CN(C)C(=O)Nc1ccccc1
56	COc1ccc(S(=O)(=O)N(C)C[C@@H]2OCCCC[C@@H](C)Oc3ccc(NS(=O)(=O)c4ccccc4)cc3C(=O)N([C@@H](C)CO)C[C@H]2C)cc1

Screen / compound no.	49	50	51	52	53	54	55	56
Vaccinia stage	?	-31	1	11	-6	?	20	?
Vaccinia stage Venus	/	-17	-1	3	-3	/	10	/

57	CC(C)NC(=O)N1CCCCN2[C@@H](CO)[C@H](c3ccc(Br)cc3)[C@@H]2C1
58	Cc1ccc(-c2ccc3c(c2)O[C@@H](CN(C)S(C)(=O)=O)[C@H](C)CN([C@H](C)CO)S3(=O)=O)cc1
59	C[C@@H]1CN([C@H](C)CO)S(=O)(=O)c2ccc(-c3ccncc3)cc2O[C@@H]1CN(C)C(=O)CN(C)C
60	O=C(Cc1cccnc1)N1CC[C@@H]2[C@@H](CO)Nc3ccc(C#Cc4ccccc4F)cc3[C@@H]21
61	Cc1ccc(S(=O)(=O)Nc2ccc3c(c2)C(=O)N([C@@H](C)CO)C[C@H](C)[C@@H](CN(C)C(=O)NC2CCCCC2)OCCCC[C@H](C)O3)cc1
62	CN1C(=O)c2cc(NC(=O)C3CCOCC3)ccc2OC[C@@H]2O[C@H](CC(=O)NCC3CC3)CC[C@@H]21
63	C[C@H](CO)N1C[C@H](C)[C@H](CN(C)S(=O)(=O)c2cn(C)cn2)Oc2ccc(NC(=O)c3ccncc3)cc2CC1=O
64	C[C@H](CO)N1C[C@H](C)[C@@H](CN(C)S(C)(=O)=O)Oc2ncc(C#CC3(O)CCCC3)cc2C1=O

Screen / compound no.	57	58	59	60	61	62	63	64
Vaccinia stage	25	-22	13	-6	?	3	11	21
Vaccinia stage Venus	0	-23	13	-2	/	6	9	10

65	CCCN1[C@@H]2c3ccc(-c4ccccc4F)c(=O)n3C[C@@H]2[C@@H](CO)[C@@H]1C(=O)N1CCCCC1
66	C[C@@H]1CCCCO[C@H](CN(C)S(C)(=O)=O)[C@@H](C)CN([C@@H](C)CO)C(=O)c2cc(NC(=O)C3CCCCC3)ccc2O1
67	C[C@@H]1CN([C@@H](C)CO)S(=O)(=O)c2ccc(C#Cc3ccncc3)cc2O[C@H]1CN(C)C(=O)c1ccncc1
68	O=C(NCC[C@@H]1CC[C@H](NS(=O)(=O)c2cccc(F)c2)[C@@H](CO)O1)Nc1cc(F)ccc1F
69	COc1ccc(NC(=O)Nc2ccc3c(c2)[C@@H]2C[C@@H](CC(=O)N4CCN(C)CC4)O[C@H](CO)[C@@H]2O3)cc1
70	C[C@H](CO)N1C[C@H](C)[C@H](CN(C)C(=O)C2CCCCC2)OCCCC[C@H](C)Oc2ccc(NS(=O)(=O)c3cn(C)cn3)cc2C1=O
71	Cc1ccc(S(=O)(=O)N(C)C[C@H]2Oc3ccc(NC(=O)Nc4ccc5c(c4)OCO5)cc3CC(=O)N([C@@H](C)CO)C[C@@H]2C)cc1
72	C[C@@H]1CN([C@@H](C)CO)C(=O)c2cc(NC(=O)CCC(F)(F)F)ccc2O[C@@H](C)CCCCO[C@H]1CN(C)C(=O)c1ccccc1
73	CO[C@@H]1CN(C)C(=O)c2cc(NC(C)=O)ccc2OC[C@H](C)N(C(=O)CC2CC2)C[C@H]1C

Screen / compound no.	65	66	67	68	69	70	71	72	73
Vaccinia stage	-6	13	?	-13	-5	20	27	-7	11
Vaccinia stage Venus	-9	11	/	-6	-6	10	16	-8	5

Screening data as filed in PubChem BioAssay.
